From PubChem BioAssay
PINK1 expr mod = changes PINK1 expression | PINK1 immunofluorescence, high-content cytometry, 24 h | Potency, µM (top dose mostly 76.6 µM), without a hit: at the top dose activation (PINK1 increase), usual class: activators | 410,000 tested, 0.2% active | AID 624263; active = well fitted activation curve with a large enough effect; inconclusive = small, poorly fitted or top-dose-only effect; inactive = flat fitted curve, though single readings scatter; cell line not stated here;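 further: potency means the concentration at half of the fitted maximal effect; % of control where 0% means no effect; nearly all actives have a fitted effect of over 65% in size; a mitochondrial uncoupler was the plate control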
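Readout is PINK1 immunofluorescence, quantified alongside mitochondrial, cell and nuclear markers by laser-scanning microplate cytometry. Cells from a stable line were exposed to compound titrations (5 concentrations) for 24 hours, with CCCP controls.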
Six1-Eya2 blk = blocks human Six1 binding to Eya2; Q15475+O00167; AID 651725; AlphaScreen GST-Six1/His-Eya2 binding, biochemical; active compounds read low; control for the full effect not named in the record; activity change, % (no concentration beside the values); 360,000 tested, 0.56% active; in the data active = activity change below about -65%; inconclusive = about -30% to -65%; inactive = above about -30%; further: on the % scale 0 is the no-effect control and ±100 the full control effect
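Six1/Eya2 binding was read as AlphaScreen signal after compounds were pinned into GST-Six1 plus His-tagged Eya2 (5X stock 250/500 nM) in pH 8.0 Tris/NaCl/TCEP buffer, beads added, then incubated 1 h, 37 C, dark.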
CtBP-E1A inh = CtBP/E1A binding inhibition | AlphaScreen GST-E1A/His-CtBP binding, 1536-well; active compounds read low; control for the full effect not named in the record | 340,000 tested, 0.49% active | activity change, % (concentration not given with the values); in the data active means activity change below about -65%; inconclusive means about -30% to -65%; inactive means above about -30%; further: on the % scale 0 is the no-effect control and ±100 the full control effect
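AlphaScreen with 125 nM GST-E1A and 125 nM His-CtBP (5X stocks) in Tris pH 8.0, 300 mM NaCl, BSA, Tween 20, TCEP. Compounds preincubated 2 h at 37 deg C, then glutathione donor/nickel acceptor beads added for 1 h at 37 deg C in dark.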
D2 ag = human D2 receptor agonism in beta-arrestin assay | DiscoveRx PathHunter D2 beta-arrestin, luminescence, 90 min; 100% = 57 uM dopamine signal | AID 624465 | 360,000 tested, 0.084% active | activation, % (no concentration beside the values); in the data active = activation above about 40%; inconclusive = about 15% to 40%; inactive = below about 15%; further: compound concentration not given in the record; the text of the record calls up to 30% inactive
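Agonist mode: compounds alone added to overnight-plated D2 PathHunter cells for 90 min at 37 C, with 57 uM final dopamine (EC100) defining full response. Beta-arrestin recruitment detected by chemiluminescent reagent, read after 1 h at ambient temperature.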
TRPV1 PAM = enhances activation of the human vanilloid receptor TRPV1; Q8NER1; TRPV1-expressing cells, Fluo-8 calcium influx, capsaicin EC20 potentiation; host cell line not named in the record; control for the full effect not named in the record; potentiation, % at 8.33 µM; 320,000 tested, 0.02% active; active means potentiation above 80%; inconclusive means 30% to 80%; inactive means below 30%; further: 0% is about no effect
Target sequence (Q8NER1 whole entry, looked up): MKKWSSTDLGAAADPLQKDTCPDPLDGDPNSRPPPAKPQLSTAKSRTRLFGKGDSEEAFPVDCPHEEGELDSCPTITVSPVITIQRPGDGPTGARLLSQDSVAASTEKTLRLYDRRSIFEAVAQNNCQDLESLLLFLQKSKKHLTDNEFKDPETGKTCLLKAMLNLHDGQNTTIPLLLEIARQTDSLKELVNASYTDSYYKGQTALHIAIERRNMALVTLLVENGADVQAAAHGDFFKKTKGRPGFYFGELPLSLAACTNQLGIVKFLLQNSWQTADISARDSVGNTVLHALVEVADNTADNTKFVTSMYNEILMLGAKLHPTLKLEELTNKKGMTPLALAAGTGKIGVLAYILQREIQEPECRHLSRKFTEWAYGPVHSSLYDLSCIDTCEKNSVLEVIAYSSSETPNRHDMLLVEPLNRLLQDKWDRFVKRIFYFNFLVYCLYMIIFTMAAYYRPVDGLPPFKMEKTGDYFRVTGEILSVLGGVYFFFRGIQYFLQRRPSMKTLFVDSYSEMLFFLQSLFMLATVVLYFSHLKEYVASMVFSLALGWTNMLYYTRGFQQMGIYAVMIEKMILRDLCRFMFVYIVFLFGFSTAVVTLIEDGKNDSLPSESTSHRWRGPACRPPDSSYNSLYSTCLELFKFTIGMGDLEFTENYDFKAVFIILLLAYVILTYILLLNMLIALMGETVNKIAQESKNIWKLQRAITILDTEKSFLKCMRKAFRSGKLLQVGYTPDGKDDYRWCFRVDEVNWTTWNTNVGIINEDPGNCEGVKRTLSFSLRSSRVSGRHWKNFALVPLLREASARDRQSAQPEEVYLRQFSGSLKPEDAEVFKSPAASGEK
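Cells expressing TRPV1 were dye-loaded with Fluo-8 and read kinetically: 10 s baseline, 3 min after compound (agonist portion), then 2 min after EC20 capsaicin (allosteric enhancer portion). Calcium-bound dye fluorescence at 480/520 nm.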
D2 potentiator = potentiates the human D2 dopamine receptor allosterically; P14416; DiscoveRx D2 beta-arrestin cells, luminescence, 90 min; 100% = 57 uM dopamine signal; potentiation, % (concentration not given with the values); 360,000 tested, 0.23% active; active = potentiation of 50% or more; inconclusive = 30% to 50%; inactive = 30% or less;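 further: compound concentration not given in the record; tested on top of an EC20 dose of dopamine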
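PathHunter beta-arrestin assay in DiscoveRx D2 cells. Compounds were added with an EC20 of dopamine (50 nM final) for 90 min at 37 deg C. Luminescence was read 1 h after detection reagent, with 57 uM dopamine as the EC100 control.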
Sfp PPTase inh = Sfp phosphopantetheinyl transferase inhibition | Q9F4F7 | Potency, µM, inactives show max response, negative = inhibition, actives largely listed as inhibitors | Biochemical Sfp PPTase activity, qHTS | AID 1490 | 310,000 tested, 3.5% active; active means well fitted inhibition curve with a large enough effect; inconclusive means small, poorly fitted or top-dose-only effect, or another doubt; inactive means no such curve, though single readings can be large or run the other way;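 further: the enzyme is Sfp with the accession as filed and its product quenches rhodamine fluorescence; potency means the concentration at half of the fitted maximal effect; 0% = enzyme reaction without inhibitor and -100% = no enzyme wells; top concentration of the series not given in the record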
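Fluorescence-quenching assay with 15 nM Sfp, 5 uM rhodamine-CoA and 12.5 uM BHQ-2-labelled ybbR peptide in pH 7.6 Hepes/MgCl2 buffer. Enzyme was pre-incubated with compound for 15 min at room temperature. Rate was taken from the 30-min fluorescence change (525/598 nm).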
* = called active by the depositor; ? = inconclusive; . = no result given; [ ] = dose if it differs, or a comment. This is a subset (hit frequency here may not be typical).

SMILES	PINK1 expr mod	Six1-Eya2 blk	CtBP-E1A inh	D2 ag	TRPV1 PAM	D2 potentiator	Sfp PPTase inh
CC(=O)N1N=C2C3CCN(CC3)C2C1c1ccccc1 (configuration not stated)	.	4	-5	0.6	?	-10	9%
Cc1nc2c(c(=O)[nH]1)C(c1ccccc1Cl)c1c(c3ccccc3oc1=O)O2 (configuration not stated)	2.9%	-5	-4	-3.7	1	-1	23%
C[C@]12CCC3C(CC[C@H]4C[C@@H](O)CC[C@]34C)C1C[C@@H](N)[C@@H]2O (some centres not stated)	-1.0%	3	5	-5.1	.	-15	.
O=[N+]([O-])c1ccc(C2[C@H]3C(c4ccccc4)=NC4(CCCC4)N23)cc1 (some centres not stated)	1.8%	-2	-7	-1.6	-7	-4	10%
CC[n+]1c(SC)ccc2cc(OC)ccc21	3.6%	5	2	-0.9	4	17	4%
CC(NC(=O)Oc1ccccc1)C(c1cccs1)N1CCOCC1 (configuration not stated)	-1.7%[38.3 µM]	6	-4	-1.6	27	-4	6%
CCn1nc(-c2cccs2)nc2c(=O)n(C)c(=O)nc1-2	-1.5%	-13	-18	.	0	14	-5%
CCCOC(=O)c1ccccc1C(=O)OCCC	3.4%	6	9	7.7	-35	-8	.
COc1ccccc1CCNC1C2CC3CC(C2)CC1C3 (configuration not stated)	-1.1%	2	-11	-4.5	2	-31	2%
Cc1cc(=O)oc2c(C)c(OCC(=O)N3CCC(C(=O)O)(c4ccccc4)CC3)ccc12	2.1%	-28	-25	-4.3	-5	-29	25%
C[C@@H]1CN([C@H](C)CO)C(=O)CCCn2nncc2CO[C@@H]1CN(C)C(=O)Oc1ccc2ccccc2c1	0.9%	6	-6	-11	.	-13	.
COC(=O)C1=C(c2ccc(F)cc2F)C[C@@H]2CC[C@H]1N2C(=O)NC1CCCCC1	0.3%	-2	.	-1.1	-3	-15	.
c1cncc(CNC2=NCCC2)c1	-0.5%	1	3	0.1	2	-18	12%
Cc1occc1C(=O)Nc1nnc(C(F)(F)F)s1	?	-3	0	-1.3	7	0	6%
COc1ccc(OC)c(N2C(=O)NC(=O)/C(=C/c3ccc([N+](=O)[O-])s3)C2=O)c1	0.6%	0	0	2.0	10	16	10µM*
O=c1[nH]c(O)c(C=Nc2ccc(Cl)c(C(F)(F)F)c2)c(=O)[nH]1	-1.2%	1	3	3.9	5	-1	21%
COc1ccc(CC(=O)C2C(=O)N(C)c3ccccc32)cc1OC (configuration not stated)	0.3%	-3	-16	-3.2	.	-9	.
C=CCC1(CC)C(=O)NC(=S)NC1=O	-0.2%	9	-2	-2.2	.	-5	.
O=c1c2ccccc2nc(/C=C/c2ccc([N+](=O)[O-])o2)n1-c1ccc(O)cc1	40µM*	-11	3	5.5	3	18	-14%
CN(C)C(=O)Oc1c(Cl)cc(Cl)c2ccccc12	3.8%	34	2	-4.9	-8	-2	1%
CNc1cc(N2CCN(C)CC2)ccc1[N+](=O)[O-]	0.2%	1	.	-2.3	1	-12	8%
CC(=O)[C@@]1(O)CC[C@H]2[C@@H]3CC=C4C[C@@H](O)CC[C@]4(C)[C@H]3CC[C@@]21C	4.7%	-16	3	-7.0	4	4	14%
O=C(Nc1cccc(Cl)c1)OCC#CCN1CCCC1	-0.6%	-6	-3	-0.2	.	-30	.
Cc1ccc(C)c(NP(=O)(Oc2ccccc2)Oc2ccccc2)c1	-3.7%	1	-4	0.8	27	?	-5%
CCC(c1nnnn1Cc1ccccc1)N1CCC(n2c(=O)[nH]c3ccccc32)CC1 (configuration not stated)	-0.9%	5	-3	2.9	.	.	.
O=C(O)Cn1cc(/C=C2\C(=O)NC(=O)N(c3ccc(Br)cc3)C2=O)c2ccccc21	2.1%	-2	4	-3.8	-5	-5	28µM*
COC(=O)C1=C(c2cccc(C#N)c2)C[C@@H]2CC[C@H]1N2C(=O)N1CCCCC1	0.3%	5	3	1.7	-25	-5	.
C=CCc1c(C)[nH]c(=S)c(C#N)c1C	-1.7%	-8	3	1.8	2	-22	10µM*
CC[C@H](C)[C@@H](C(=O)N1CCCC1c1nccs1)N(C)C(=O)[C@H](CC(C)C)N(C)C(=O)[C@H](Cc1ccc(OC)cc1)N(C)C(=O)/C=C(\C)OC (some centres not stated)	-0.1%	-2	2	-0.7	.	.	.
CN(CC(=O)Nc1cccc(F)c1)CC(=O)Nc1cccc(S(=O)(=O)N(C)c2ccccc2)c1	?	-2	-3	-3.9	.	-21	.
O=C1CC(N2CCC(n3c(=O)[nH]c4ccccc43)CC2)C(=O)N1c1ccc(F)cc1 (configuration not stated)	-1.3%	4	-7	0.6	-12	-11	12%
C=CCn1c(O)c(C(=O)CCCCCC)c(=O)[nH]c1=O	3.7%	4	-2	-0.3	8	-9	-16%
O=C1C(=O)c2ccccc2-c2ccccc21	-0.3%	-2	?	5.7	-14	-18	-16%
O=c1c2ccc(Cl)cc2[nH]c(=S)n1-c1cccnc1	4.8%	-11	-3	2.7	8	-6	-2%
Cc1cc(OCc2cc(C(=O)O)oc2C)c2c3c(c(=O)oc2c1)CCCC3	-1.1%[38.3 µM]	-5	-8	-1.7	3	-9	-9%
CC(=O)O[C@@]12CO[C@@H]1C[C@@H](O)[C@@]1(C)C(=O)[C@H](O)C3=C(C)[C@@H](OC(=O)[C@H](O)[C@@H](NC(=O)c4ccccc4)c4ccccc4)C[C@@](O)([C@@H](OC(=O)c4ccccc4)C12)C3(C)C (some centres not stated)	5.4%	-2	-3	-5.5	4	-50	-3%
COc1ccc(-n2nnnc2C(c2cccc3ccccc23)N2CCC3(CC2)C(=O)NCN3c2ccccc2)cc1 (configuration not stated)	1.2%	-14	-13	.	.	-7	.
COc1ccc(N2CCN(CCCN)CC2)cc1	-2.2%	-13	-17	-0.2	.	-20	.
COC12c3ccccc3-c3ccccc3C1C(C(=O)O)C2C(=O)O (configuration not stated)	0.3%	1	-5	9.1	.	0	.
CC(C)c1ccc(-n2c(O)c(/C=N/NC(=O)c3ccncc3)c(=O)[nH]c2=O)cc1	8.6%	?	?	6.1	6	10	6%

Retrieved by compound from above, two records:
SMILES	PINK1 expr mod	Six1-Eya2 blk	CtBP-E1A inh	D2 ag	TRPV1 PAM	D2 potentiator	Sfp PPTase inh
CN(CC(=O)Nc1cccc(F)c1)CC(=O)Nc1cccc(S(=O)(=O)N(C)c2ccccc2)c1	?	-2	-3	-3.9	.	-21	.
CNc1cc(N2CCN(C)CC2)ccc1[N+](=O)[O-]	0.2%	1	.	-2.3	1	-12	8%

5 entries from above, with bars between the fields:
SMILES | PINK1 expr mod | Six1-Eya2 blk | CtBP-E1A inh | D2 ag | TRPV1 PAM | D2 potentiator | Sfp PPTase inh
C[C@@H]1CN([C@H](C)CO)C(=O)CCCn2nncc2CO[C@@H]1CN(C)C(=O)Oc1ccc2ccccc2c1 | 0.9% | 6 | -6 | -11 | . | -13 | .
COC(=O)C1=C(c2ccc(F)cc2F)C[C@@H]2CC[C@H]1N2C(=O)NC1CCCCC1 | 0.3% | -2 | . | -1.1 | -3 | -15 | .
c1cncc(CNC2=NCCC2)c1 | -0.5% | 1 | 3 | 0.1 | 2 | -18 | 12%
Cc1occc1C(=O)Nc1nnc(C(F)(F)F)s1 | ? | -3 | 0 | -1.3 | 7 | 0 | 6%
COc1ccc(OC)c(N2C(=O)NC(=O)/C(=C/c3ccc([N+](=O)[O-])s3)C2=O)c1 | 0.6% | 0 | 0 | 2.0 | 10 | 16 | 10µM*

(list continues)
SMILES	PINK1 expr mod	Six1-Eya2 blk	CtBP-E1A inh	D2 ag	TRPV1 PAM	D2 potentiator	Sfp PPTase inh
O=C(O)CNC1c2ccccc2CSc2ccccc21 (configuration not stated)	1.1%	32	-9	-0.3	.	-4	.
Cc1cccc(C)c1-n1nnnc1C(c1cccc2ccccc12)N1CCC2(CC1)C(=O)NCN2c1ccccc1 (configuration not stated)	1.1%	-4	-4	-4.1	.	-10	.
COC(=O)C1=C(c2ccc(Cl)c(C(F)(F)F)c2)C[C@@H]2CC[C@H]1N2C(=O)NCCOc1ccccc1	?	-5	.	-0.2	0	-2	.
C1CC2OC2CC1C1CO1 (configuration not stated)	14%	3	-1	-3.2	1	0	.
CC(C)COC(=O)n1c(=O)oc2ccc(S(=O)(=O)N3CCCCC3)cc21	?	7	-2	4.6	21	5	-2%
C[C@@H]1C(=O)O[C@H]2[C@H](O)[C@]34[C@@H]5OC(=O)[C@]3(OC3OC(=O)[C@H](O)C34[C@H](C(C)(C)C)[C@@H]5O)[C@@]12O (some centres not stated)	1.4%	0	2	-3.2	.	6	.
COc1ccc(C(=O)CC2C(=O)N(C)C(=O)N(C)C2=O)cc1	0.7%	9	-2	5.4	2	3	?
Cc1nn(Cc2ccccc2Cl)c(C)c1C(=O)OCC(=O)NC1CCCC(C)C1C (configuration not stated)	?	7	14	-4.3	19	7	-3%
Cc1ccsc1C(=O)C1CCCN(Cc2cn(C)nc2C)C1 (configuration not stated)	1.7%	-4	0	-5.0	-7	-14	2%
O=C(COc1ccccc1)N1CCN(CC2CC3C=CC2C3)CC1 (configuration not stated)	.	-1	7	1.2	-17	-25	-24%
COc1ccc(-c2nn(Cc3ccccc3)cc2C(=O)NC2CC2)cc1OC	0.5%	-3	5	3.2	5	-20	.
OC1(c2ccccc2)CCNC2CCCCC21 (configuration not stated)	-1.4%	5	-4	-2.4	11	-4	13%
Cc1ccc(CC2C(=O)N(C)C(=O)N(C)C2=O)s1	65%[38.3 µM]	3	3	0.6	17	1	35µM*
CCOP(=O)(OCC)c1ccc(OP(=O)(c2cccc([N+](=O)[O-])c2)c2cccc([N+](=O)[O-])c2)cc1	1.8%	-9	-8	-3.3	5	-8	15%
COC(=O)C1=C(c2cccc(OC)c2OC)C[C@@H]2CC[C@H]1N2C(=O)NCCO	1.9%	34	2	0.1	.	-1	.
Cc1nc2ccccc2c(=O)n1-c1cc(F)ccc1F	0.0%	-4	1	3.5	-26	-4	17%
C=CCN1C(=O)NC(=O)/C(=C\c2ccc(-c3ccccc3[N+](=O)[O-])o2)C1=O	-1.5%	-2	-8	-1.9	2	-22	25µM*
COC(=O)C1=C(c2cc3ccccc3o2)C[C@@H]2CC[C@H]1N2C(=O)NC1CCCCC1	?	-4	0	-0.8	.	-12	.
